RE007 growth inh: less growth of the S. pombe RE007 Vpr strain. S. pombe RE007 Vpr strain, BacTiter-Glo ATP luminescence, 24 h; control for the full effect not named in the record. Potency, µM (doses to about 92.2 µM), inactives show top-dose activity change, negative = less growth. 0.21% of 360,000 active; active = well fitted falling curve with a large enough effect; inconclusive = small, poorly fitted or top-dose-only effect; inactive = no such curve, though single readings can be large or run the other way;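 note: % is set by controls: 0 for no effect and ±100 for the full control effect; nearly all actives have a fitted effect of over 50% in size; the assay follows cell death caused by Vpr and the record does not say whether a fall means rescue or toxicity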
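Fission yeast RE007 carrying one integrated HIV-1 vpr copy, seeded at OD 0.01 in PMG+AL medium with 23 nL pinned compound. Grown 24 h at 30 degrees; viability read by BacTiter-Glo luminescence after 5 min.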
SARS PLpro yeast: blocks SARS-CoV papain-like protease in a yeast assay; S. cerevisiae expressing SARS-CoV PLpro, growth rescue; control for the full effect not named in the record; Potency, µM (series often up to 32.9 µM), inactives show at the top dose activity, positive = growth rescue; 0.19% of 330,000 active; AID 485353; active means well fitted rising curve with a large enough effect; inconclusive means small, poorly fitted or top-dose-only effect; inactive means no such curve, though single readings can be large or run the other way; note: 0% is about no effect; nearly all actives have a fitted effect of over 55% in size; growth read by luminescence after 48 h
StopGo reporter: FMDV 2A StopGo reporter, luciferase signal. human cells with a luciferase reporter of 2A StopGo recoding; control for the full effect not named in the record. Potency, µM (top dose mostly 57.9 µM), for the others: at the top dose signal change, negative = less light. 1.2% of 410,000 active; active = well fitted falling curve with a large enough effect; inconclusive = small, poorly fitted or top-dose-only effect; inactive = no such curve, though single readings can be large or run the other way; tested in HEK293T cells; note: % is set by controls: 0 for no effect and ±100 for the full control effect; nearly all actives have a fitted effect of over 45% in size; luciferase light after 4 h
Marburg entry inh: blocks Marburg virus binding to or entry into cells; Marburg virus pseudotyped entry inhibition, cell reporter; control for the full effect not named in the record; about a third of the inactives were read at about 46 µM; Potency, µM (highest dose often 37.8 µM), for the others: at the highest dose activity change, negative = inhibition, hits mostly inhibitors; 1.8% of 300,000 active; active = well fitted inhibition curve with a large enough effect; inconclusive = small, poorly fitted or top-dose-only effect, or effect the other way; inactive = flat fitted curve, though single readings scatter; tested in HEK293 cells; about a fifth of its hits are not listed in these tables; note: % is set by controls: 0 for no effect and ±100 for the full control effect; luciferase read-out
Cruzain inh Det: cruzain (T. cruzi) inhibition with detergent. purified cruzain, Z-FR-AMC fluorescence, 0.01% Triton. Potency, µM, for inactives: max response, negative = inhibition, most hits filed as inhibitors. 0.43% of 200,000 active;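 note: plate controls were neutral wells for no effect and buffer without enzyme for full effect; nearly all actives have a fitted effect of over 40% in size; top concentration of the series not given in the record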
Target sequence (P25779 123-467 limits assumed): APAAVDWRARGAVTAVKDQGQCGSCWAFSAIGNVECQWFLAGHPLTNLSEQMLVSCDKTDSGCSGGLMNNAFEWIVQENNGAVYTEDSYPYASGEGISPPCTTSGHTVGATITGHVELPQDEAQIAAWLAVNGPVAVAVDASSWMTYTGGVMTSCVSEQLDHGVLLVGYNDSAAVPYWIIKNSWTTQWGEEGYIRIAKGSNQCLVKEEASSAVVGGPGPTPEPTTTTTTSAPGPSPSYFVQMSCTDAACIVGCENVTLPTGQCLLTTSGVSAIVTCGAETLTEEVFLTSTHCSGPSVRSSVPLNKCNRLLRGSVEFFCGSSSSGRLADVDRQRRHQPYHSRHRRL
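Enzyme 1.5 nM, Z-FR-AMC 2 uM, NaOAc 100 mM pH 5.5, DTT 5 mM, Triton X-100 0.01%; 15 min RT compound preincubation; kinetic ex360/em450, 60 s delta.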
Lassa entry inh: blocks Lassa virus binding to or entry into cells. Potency, µM (doses to about 37.9 µM), without a hit: at the highest dose activity change, negative = inhibition, most hits filed as inhibitors. Lassa virus pseudotype entry inhibition, cell reporter; control for the full effect not named in the record. 1.2% of 300,000 active; active means well fitted inhibition curve with a large enough effect; inconclusive means small, poorly fitted or top-dose-only effect, or effect the other way; inactive means flat fitted curve, though single readings scatter; tested in HEK293 cells; note: % is set by controls: 0 for no effect and ±100 for the full control effect; nearly all actives have a fitted effect of over 50% in size; luciferase read-out
NS1 inh: influenza NS1 inhibition. S. cerevisiae slowed by influenza A NS1, growth recovery by OD600. Potency, µM (top dose mostly 46.1 µM), for inactives: at the top dose activity, positive = more growth. 0.4% of 270,000 active. AID 2326; active means well fitted rising curve with a large enough effect; inconclusive means small, poorly fitted or top-dose-only effect; inactive means no such curve, though single readings can be large or run the other way; note: nearly all actives have a fitted effect of over 50% in size
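Read-out: OD600 growth recovery of NS1-expressing budding yeast. Cells grown overnight at 30C in -URA glucose medium, washed, resuspended and diluted 1:100 in 2% galactose assay medium, pH 6.0. Same strain lacking NS1 served as positive control.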
Cruzain noTriton: cruzain (T. cruzi) inhibition without detergent. P25779. purified cruzain, Z-FR-AMC fluorescence, no detergent. Potency, µM, for the others: max response, negative = inhibition, most hits filed as inhibitors. 2.3% of 200,000 active. AID 1476;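 note: plate controls were enzyme without inhibitor for no effect and buffer without enzyme for full effect; nearly all actives have a fitted effect of over 40% in size; top concentration of the series not given in the record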
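Purified cruzain at 1.5 nM, pre-incubated 15 min with compound at room temperature in 100 mM sodium acetate pH 5.5, 5 mM DTT, 0.00005% Triton X-100. Reaction started with 2 uM Z-FR-AMC; AMC fluorescence increase over 60 s gives rate.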
Starred values were filed as active, the others as inactive; ? = inconclusive; / = not tested or not shown; & = joins results of further samples; [ ] = another dose, or the depositor's remark. Unless noted, calls come from the whole dose curve; as a rule, active = well fitted curve in the direction sought with a large enough effect; inconclusive = small, poorly fitted or top-dose-only effect, or another doubt; inactive = no such curve, though single readings can be large; an effect the other way counts as inactive or inconclusive. Potency is the fitted concentration of half-maximal effect.

SMILES	RE007 growth inh	SARS PLpro yeast	StopGo reporter	Marburg entry inh	Cruzain inh Det	Lassa entry inh	NS1 inh	Cruzain noTriton
O=C(Cn1ccc2cc(S(=O)(=O)N3CCCCCC3)ccc21)NCCc1ccc(Cl)cc1	/	/	-11%	/	-5.9%	-2%[46.1 µM]	/	4%
C=CCn1c(SCCC)nc(O)cc1=O	-15%	3%	/	15%	2.8%	-4%	?	1%
CCc1ccc(NC(=O)CSc2nnc(Cc3cccn3C)n2-c2ccc(F)cc2)cc1	1%	-5%	56%[activator]	9%	-12%	/	-72%	?
CCCOc1ccc(CN2C(=O)C(=O)c3cccc(C)c32)cc1	/	/	-13%	?	0.3%	-20%[46.1 µM]	/	-3%
CCCOC(=O)c1ccc(NC(=O)c2ccccc2OC)cc1	-5%	-19%	10%	-6%[46.1 µM]	/	-32%	/	/
CCOC(=O)N1CCN(C(=O)Cn2c(C)cc3ccccc3c2=O)CC1	/	-5%	-9%	0%	0.9%	/	4%	-3%
O=C(CCC(NC(=O)OCc1ccccc1)C(=O)OCc1ccccc1)NCC(=O)OCc1ccccc1 (stereo not given)	-3%	-21%	9%	12%	-11%	21%	2%	6%
CCOC(=O)C1CCCN(S(=O)(=O)c2ccc3c(c2)C(C)(C)C(=O)N3C)C1 (stereo not given)	-7%	-1%	-10%	/	/	/	-8%	/
Cc1ccc(Cn2c(-n3nc(C)cc3C)nc3c2c(=O)[nH]c(=O)n3C)cc1	5%	5%	-17%	6%	2.8%	-15%	-8%	-2%
O=C(NC1CCCCC1)c1cc(-c2ccc(F)cc2)on1	0%	2%	60%[activator]	12%[46.1 µM]	/	/	8%	/
Cc1ccc(-c2nnc(Nc3ccc(Cl)c(Cl)c3)c3ccccc23)cc1S(=O)(=O)NCCO	/	/	17%	/	-2.3%	?	/	15%
CSCC[C@H](NC(=O)OC(C)(C)C)C(=O)N1CCC(C(=O)N[C@@H](C)C(=O)NCc2ccc(F)cc2)CC1	0%	5%	0%	/	/	/	-7%	/
CCN1C(=O)CC(C(=O)NC)SC1=Nc1cc(Cl)c(O)c(Cl)c1 (stereo not given)	-4%	4%	0%	19%	-1.8%	0%	-9%	5%
CCOc1ccccc1NS(=O)(=O)N(C)C	4%	-3%	1%	4%	7.4%	15%	0%	3%
Nc1ccc2nc(Cc3ccccc3)[nH]c2c1	-10%	1%	12%	?	/	14%[46.1 µM]	17%	/
O=C(Nc1ccccc1OC(F)F)C1CCCN1C(=O)c1cccs1 (stereo not given)	29%	-15%	-18%	?	1.5%	5%	2%	-3%
NC(=O)COC(=O)c1oc2ccccc2c1CSc1ccc(Cl)cc1	28%	10%	-21%	-16%	-6.3%	7%	-5%	3%
CCCOc1ccc(N2C(=O)C3ON(c4ccccc4)C(CCC)C3C2=O)cc1 (stereo not given)	?	-12%	?	?	-3.0%	9%	16%	-11%
O=C(CNC(=O)c1ccccc1)OC(C(=O)Nc1cc(C(F)(F)F)ccc1Cl)c1ccccc1 (stereo not given)	-1%	7%	28%	14%&14%&14%	7.1µM*	?	2%	10µM*
CCCn1c(C)cc(=O)c2cc(NC(=O)c3ccccn3)ccc21	17%	4%	?	?	0.8%	-15%	-6%	3%
Nc1ccc2c(c1)nnn2-c1ccccc1	8%	-1%	32%[activator]	?	/	?	6%	/
COc1cc(OC)cc(-c2oc(=O)c3cc(OC)c(OC)cc3c2C#CCCCO)c1	26%	-1%	-19%	4%	/	/	/	/
COc1ccc(C(C)=O)cc1CC(C(=O)c1ccc(F)cc1)N(C)C (stereo not given)	0%	-1%	-6%	-29%[46.1 µM]	0.3%	-1%	?	0%
Cc1cc(NC(=O)CSc2nc(-c3ccccc3F)nc3c2c(=O)n(C)c(=O)n3C)no1	/	/	?	/	3.0%	1%[46.1 µM]	/	9%
CCN(CC)c1nc(C#N)cc(-c2ccc(OC)cc2)n1	-11%	-11%	?	?	-14%	?	-6%	-14%

No new results follow: 14 of the compounds above.
SMILES	RE007 growth inh	SARS PLpro yeast	StopGo reporter	Marburg entry inh	Cruzain inh Det	Lassa entry inh	NS1 inh	Cruzain noTriton
O=C(NC1CCCCC1)c1cc(-c2ccc(F)cc2)on1	0%	2%	60%[activator]	12%[46.1 µM]	/	/	8%	/
Cc1ccc(-c2nnc(Nc3ccc(Cl)c(Cl)c3)c3ccccc23)cc1S(=O)(=O)NCCO	/	/	17%	/	-2.3%	?	/	15%
CSCC[C@H](NC(=O)OC(C)(C)C)C(=O)N1CCC(C(=O)N[C@@H](C)C(=O)NCc2ccc(F)cc2)CC1	0%	5%	0%	/	/	/	-7%	/
CCN1C(=O)CC(C(=O)NC)SC1=Nc1cc(Cl)c(O)c(Cl)c1 (stereo not given)	-4%	4%	0%	19%	-1.8%	0%	-9%	5%
CCOc1ccccc1NS(=O)(=O)N(C)C	4%	-3%	1%	4%	7.4%	15%	0%	3%
Nc1ccc2nc(Cc3ccccc3)[nH]c2c1	-10%	1%	12%	?	/	14%[46.1 µM]	17%	/
O=C(Nc1ccccc1OC(F)F)C1CCCN1C(=O)c1cccs1 (stereo not given)	29%	-15%	-18%	?	1.5%	5%	2%	-3%
NC(=O)COC(=O)c1oc2ccccc2c1CSc1ccc(Cl)cc1	28%	10%	-21%	-16%	-6.3%	7%	-5%	3%
CCCOc1ccc(N2C(=O)C3ON(c4ccccc4)C(CCC)C3C2=O)cc1 (stereo not given)	?	-12%	?	?	-3.0%	9%	16%	-11%
O=C(CNC(=O)c1ccccc1)OC(C(=O)Nc1cc(C(F)(F)F)ccc1Cl)c1ccccc1 (stereo not given)	-1%	7%	28%	14%&14%&14%	7.1µM*	?	2%	10µM*
CCCn1c(C)cc(=O)c2cc(NC(=O)c3ccccn3)ccc21	17%	4%	?	?	0.8%	-15%	-6%	3%
Nc1ccc2c(c1)nnn2-c1ccccc1	8%	-1%	32%[activator]	?	/	?	6%	/
COc1cc(OC)cc(-c2oc(=O)c3cc(OC)c(OC)cc3c2C#CCCCO)c1	26%	-1%	-19%	4%	/	/	/	/
COc1ccc(C(C)=O)cc1CC(C(=O)c1ccc(F)cc1)N(C)C (stereo not given)	0%	-1%	-6%	-29%[46.1 µM]	0.3%	-1%	?	0%

Going on with the list.
SMILES	RE007 growth inh	SARS PLpro yeast	StopGo reporter	Marburg entry inh	Cruzain inh Det	Lassa entry inh	NS1 inh	Cruzain noTriton
Cc1ccn2c(NC3CCCCC3)c(C)nc2c1	-5%	-1%	-14%	23%	7.5%	?	-50%	8%
COc1cc(/C=N/Nc2nc3ccccc3[nH]c2=O)ccc1O	-2%	-4%	3%	?	/	2%	/	/
CC(C)c1ccc(C2NC(=O)c3c(sc4c3CCN(C)C4)N2)cc1 (stereo not given)	/	/	1%	0%[46.1 µM]	-5.5%	-27%[46.1 µM]	/	-3%
CCn1c(=O)c(C(=O)NNS(=O)(=O)c2ccc(Cl)cc2)c(O)c2ccccc21	-13%	?	-17%	-13%	-9.1%	0%	-30%	25µM*
Cc1cccc(N2CCc3c2nc2ccc(Br)cc2c3N)c1	-12%	-8%	/	?	-25%	10%	-22%	-1%
O=C(CNC(=O)c1ccc(Br)o1)Nc1ncccc1O	-8%	/	1%	29%	/	6%	/	/
O=C(CC1C(=O)NCCN1C(=O)Nc1ccccc1)Nc1cc(Cl)ccc1Cl (stereo not given)	1%	1%	-5%	-29%[46.1 µM]	/	0%	17%	/
Cc1cc(Nc2ccc3ccccc3c2)n2ncnc2n1	1%	-3%	15%	2%&2%	0.5%	23%	3%	-6%
O=C(Nc1cccc2c1C(=O)NC2=O)c1ccc(S(=O)(=O)N2CCCC2)cc1	13%	4%	-3%	10%	4.9%	-10%	-60%	6%
Cc1cc(=O)[nH]c(N/N=C/c2cccs2)n1	-1%	1%	42%[activator]	?	-3.9%	1%	8%	10%
O=C(NCCC(=O)N(CCc1ccccc1)Cc1ccccc1)c1ccc([N+](=O)[O-])cc1	6%	0%	-22%	-26%	/	-29%	/	/
CCOC(=O)Cn1c2ccccc2n2nc(CCC(=O)O)c(=O)nc12	2%	0%	-1%	3%[46.1 µM]	/	-7%	5%	/
Cc1ccc2oc(=O)n(CCC(=O)Nc3ccc(N4CCOCC4)cc3)c2c1	4%	1%	-27%	?	/	15%	-3%	/
COc1ccc(-c2c(C#N)c(C)nc3c2C(=O)c2ccccc2-3)cc1	/	6%	-6%	-6%	1.6%	/	22%	8%
C=CCn1c(SCC(=O)Nc2sccc2C#N)nc2sc(C)c(C)c2c1=O	6%	/	-1%	-5%	-1.1%	-15%	-1%	-22%
O=C(Nc1ccc2c(c1)OCO2)C1CCCN1C(=O)Nc1ccccc1 (stereo not given)	4%	2%	12%	1%[46.1 µM]	/	14%	5%	/
Cc1ccc(C)c(NC(=O)NNC(=O)CCc2ccccc2)c1	-2%	-6%	4%	/	/	/	-5%	/
CCN(CC)C(=O)Cn1cnc2c1c(=O)n(C)c(=O)n2C	-8%	-7%	8%	2%	6.6%	-21%	6%	-8%
O=c1ccn(-c2cccc(C(F)(F)F)c2)nc1-c1ccn(-c2ccccc2F)n1	-4%	7%	-10%	-21%	-7.0%	-17%	2%	21%
O=c1[nH]c(SCc2ccccc2Cl)nc2c1CCCC2	7%	-3%	-10%	-3%	0.1%	1%	-5%	-24%
COc1ccc(C(=O)N/N=C/c2cc3ccccc3[nH]c2=S)cc1	-16%	10%	10%	-20%	-7.6%	-17%	20%	8%
Cc1ccc(OC(=O)c2snnc2C)cc1C	/	/	-4%	-5%[46.1 µM]	-5.2%	-1%[46.1 µM]	/	-8%
Cc1ccc(S(=O)(=O)N2CCOCC2)cc1NC(=O)CNCc1cccnc1	26%	3%	-23%	/	/	/	1%	/
CCC(C)NC(=O)c1ccccc1NC(=O)c1ccc(CSc2ccc(C)cc2)cc1 (stereo not given)	-24%	0%	-18%	?	-4.6%	-10%	6%	?
